# NS1 function inh: qHTS Assay for Inhibitors of Influenza NS1 Protein Function | 270,000 compounds, 0.4% hits | Potency, µM (doses to about 46.1 µM), without a hit: at the top dose activity, positive = more growth | S. cerevisiae slowed by influenza A NS1, growth recovery by OD600 | AID 2326, 2010; active means well fitted rising curve with a large enough effect; inconclusive means small, poorly fitted or top-dose-only effect; inactive means no such curve, though single readings can be large or run the other way; also: nearly all actives have a fitted effect of over 50% in size
#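 Read-out: OD600 growth recovery of NS1-expressing budding yeast. Cells grown overnight at 30C in -URA glucose medium, washed, resuspended and diluted 1:100 in 2% galactose assay medium, pH 6.0. Same strain lacking NS1 served as positive control.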
# StopGo reporter: High Throughput Screening for Foot and Mouth Disease Virus Antivirals; human cells with a luciferase reporter of 2A StopGo recoding; control for the full effect not named in the record; Potency, µM (highest dose often 57.9 µM), for inactives: at the top dose signal change, negative = less light; 410,000 compounds, 1.2% hits; active = well fitted falling curve with a large enough effect; inconclusive = small, poorly fitted or top-dose-only effect; inactive = no such curve, though single readings can be large or run the other way; tested in HEK293T cells; also: % is scaled to controls: 0 for no effect and ±100 for the full control effect; nearly all actives have a fitted effect of over 45% in size; luciferase light after 4 h
# Cruzain noTriton: qHTS Assay for Promiscuous and Specific Inhibitors of Cruzain (without detergent) | Cruzipain (Trypanosoma cruzi), P25779 | purified cruzain, Z-FR-AMC fluorescence, no detergent | Potency, µM, for inactives: max response, negative = inhibition, actives largely listed as inhibitors | 200,000 compounds, 2.3% hits | AID 1476, 2009;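 also: plate controls were enzyme without inhibitor for no effect and buffer without enzyme for full effect; nearly all actives have a fitted effect of over 40% in size; top concentration of the series not given in the record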
# Target sequence (P25779 123-467 limits assumed): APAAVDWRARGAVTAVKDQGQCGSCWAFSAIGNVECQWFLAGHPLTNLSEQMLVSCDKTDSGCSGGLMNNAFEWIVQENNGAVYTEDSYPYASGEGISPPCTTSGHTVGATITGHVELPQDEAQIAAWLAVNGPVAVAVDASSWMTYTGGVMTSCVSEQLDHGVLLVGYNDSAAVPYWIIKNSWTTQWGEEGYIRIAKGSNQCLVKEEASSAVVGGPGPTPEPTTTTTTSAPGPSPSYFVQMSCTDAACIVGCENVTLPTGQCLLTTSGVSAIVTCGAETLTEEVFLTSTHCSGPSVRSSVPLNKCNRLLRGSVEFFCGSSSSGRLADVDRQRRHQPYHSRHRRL
#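 Detergent-free condition (0.00005% Triton X-100) in acetate buffer pH 5.5 with DTT. 1.5 nM enzyme and compound were pre-mixed 15 min, then 2 uM Z-FR-AMC substrate added; reaction progress from fluorescence change between first and third reads (60 s).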
# RE007 growth inh: qHTS Assay for Inhibitors of the HIV-1 protein Vpr; AID 651644, 2012; 360,000 compounds, 0.21% hits; Potency, µM (top dose mostly 92.2 µM), for inactives: at the highest dose activity change, negative = less growth; S. pombe RE007 Vpr strain, BacTiter-Glo ATP luminescence, 24 h; control for the full effect not named in the record; active = well fitted falling curve with a large enough effect; inconclusive = small, poorly fitted or top-dose-only effect; inactive = no such curve, though single readings can be large or run the other way;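 also: % is scaled to controls: 0 for no effect and ±100 for the full control effect; nearly all actives have a fitted effect of over 50% in size; the assay follows cell death caused by Vpr and the record does not say whether a fall means rescue or toxicity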
#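 Fission yeast RE007 carrying one integrated HIV-1 vpr copy, seeded at OD 0.01 in PMG+AL medium with 23 nL pinned compound. Grown 24 h at 30 degrees; viability read by BacTiter-Glo luminescence after 5 min.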
# Lassa entry inh: qHTS for Inhibitors of binding or entry into cells for Lassa Virus | Potency, µM (titrated, usually from 37.9 µM), for the others: at the top dose activity change, negative = inhibition, usual class: inhibitors | AID 540256, 2011 | Lassa virus pseudotype entry inhibition, cell reporter; control for the full effect not named in the record | 300,000 compounds, 1.2% hits; active means well fitted inhibition curve with a large enough effect; inconclusive means small, poorly fitted or top-dose-only effect, or effect the other way; inactive means flat fitted curve, though single readings scatter; tested in HEK293 cells; also: % is scaled to controls: 0 for no effect and ±100 for the full control effect; nearly all actives have a fitted effect of over 50% in size; luciferase read-out
# MARV entry inh: qHTS for inhibitors of binding or entry into cells for Marburg Virus. Marburg virus pseudotyped entry inhibition, cell reporter; control for the full effect not named in the record; about a third of the inactives were read at about 46 µM. Potency, µM (series often up to 37.8 µM), for the others: at the highest dose activity change, negative = inhibition, hits mostly inhibitors. 300,000 compounds, 1.8% hits; active = well fitted inhibition curve with a large enough effect; inconclusive = small, poorly fitted or top-dose-only effect, or effect the other way; inactive = flat fitted curve, though single readings scatter; tested in HEK293 cells; about a fifth of its hits are not listed in these tables; also: % is scaled to controls: 0 for no effect and ±100 for the full control effect; luciferase read-out
# Cruzain Triton: qHTS Assay for Promiscuous and Specific Inhibitors of Cruzain (with detergent); Cruzipain (Trypanosoma cruzi), P25779; purified cruzain, Z-FR-AMC fluorescence, 0.01% Triton; AID 1478, 2009; 200,000 compounds, 0.43% hits; Potency, µM, for inactives: max response, negative = inhibition, hits mostly inhibitors;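 also: plate controls were neutral wells for no effect and buffer without enzyme for full effect; nearly all actives have a fitted effect of over 40% in size; top concentration of the series not given in the record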
#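 Steps: dispense cruzain (1.5 nM final) in acetate buffer pH 5.5 with DTT and 0.01% Triton X-100; pin-transfer compounds; incubate 15 min RT; add Z-FR-AMC (2 uM final); read fluorescence every 30 s, using the 60 s intensity change.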
# SARS PLP yeast: qHTS of Yeast-based Assay for SARS-CoV PLP | AID 485353, 2010 | Potency, µM (doses to about 32.9 µM), for the others: top-dose activity, positive = growth rescue | 330,000 compounds, 0.19% hits | S. cerevisiae expressing SARS-CoV PLpro, growth rescue; control for the full effect not named in the record; active means well fitted rising curve with a large enough effect; inconclusive means small, poorly fitted or top-dose-only effect; inactive means no such curve, though single readings can be large or run the other way; also: 0% is about no effect; nearly all actives have a fitted effect of over 55% in size; growth read by luminescence after 48 h
# An asterisk follows results filed as active; ? = inconclusive; . = no result given; [ ] = remark or other dose. Unless noted, calls follow the shape of the dose curve; as a rule, active = well fitted curve in the direction sought with a large enough effect; inconclusive = small, poorly fitted or top-dose-only effect, or another doubt; inactive = no such curve, though single readings can be large; an effect the other way counts as inactive or inconclusive. Potency is read from the fitted curve at half-maximal effect.
SMILES,NS1 function inh,StopGo reporter,Cruzain noTriton,RE007 growth inh,Lassa entry inh,MARV entry inh,Cruzain Triton,SARS PLP yeast
CCN(CC)C(=O)c1ccc2c3c(cccc13)C(=O)N(CCc1ccc(OC)c(OC)c1)C2=O,-3%,32µM*,15%,-1%,?,?,-7.9%,-3%
Cc1cc(NC(=O)C(C)SCC(=O)Nc2cc(C(F)(F)F)ccc2N2CCCCC2)no1 (stereo not drawn),.,-6%,.,-10%,-27%,?,.,-9%
COc1ccc(-c2noc(N3CCC(C(=O)Nc4cc(OC)c(OC)c(OC)c4)CC3)n2)cc1,-3%,-24%,.,1%,.,.,.,2%
COc1ccc(CC(=O)NNC(=O)c2cc(C)oc2C)cc1OC,.,-10%,.,17%,?,?,.,-1%
CNCCCOc1ccc(C)cc1Br,-2%,-12%,-2%,-23%,8%,-20%,-2.7%,-4%
Oc1ccccc1C=NCCN=Cc1ccccc1O,2%,5%,.,4%,.,.,.,0%
O=C(Nc1ccccc1Cl)N1CCC(CN2CCCCC2)CC1,.,6%,1%,.,17%[46.1 µM],.,0.8%,.
Cc1ccc(Cl)cc1NC(=O)C1CCN(c2nc3ccccc3n3cccc23)CC1,.,0%,?,.,-3%[46.1 µM],.,-10%,.
Cc1cccc(CS(=O)(=O)Cc2ccc(C(=O)NC3CCCCC3)o2)c1,-18%,6%,.,5%,.,.,.,19%
Cc1cc(C)c2nc(N(Cc3cccnc3)C(=O)c3ccc(S(=O)(=O)N(C)C)cc3)sc2c1,.,-9%,-7%,.,20%[46.1 µM],.,-0.5%,.
COC(=O)c1c(NC(=O)CCCOc2cccc(C)c2)sc2c1CCC(C)C2 (stereo not drawn),.,-11%,6%,.,9%[46.1 µM],.,-3.4%,.
COc1cccc(OC)c1/C=C/C(=O)NC1CCCCC1,-9%,11%,.,-2%,.,.,.,-7%
Cc1cc(=O)[nH]c(SCCOc2ccc3c(c2)CCC3)n1,0%,.,?,10%,3%,5%,4.1%,.
CCCOc1ccccc1OCC(=O)Nc1cc(Cl)ccc1-n1cncn1,.,-27%,.,2%,?,-27%,.,1%
CCOC(=O)C1=C(N)Oc2ccc3ccccc3c2C1c1cccc(O)c1 (stereo not drawn),-60%,-24%,.,-5%,.,.,.,-30%
CSc1nc(S(=O)(=O)c2ccccc2)c(Cl)s1,4%,-12%,.,10%,0%,7%,.,0%
COc1ccc(C(CC(=O)N2CCOCC2)c2c(O)cc(OC)cc2OC)cc1 (stereo not drawn),-5%,-17%,.,-5%,.,.,.,-2%
Cn1nc(C(F)(F)F)c2cc(C(=O)O)sc21,.,0%,.,-6%,-10%,?,.,4%
CN(c1ccc(Cl)cc1)S(=O)(=O)c1nnc(NC(=O)C2CCCCC2)s1,.,-8%,13%,.,3%[46.1 µM],.,-3.2%,.
O=C(O)CN1C(=O)/C(=C/c2cccc(Cl)c2)Oc2ccccc21,-8%,-5%,.,4%,11%[46.1 µM],18%[46.1 µM],.,13%
O=C(NCCCN1CCCC1=O)c1cccc(S(=O)(=O)Nc2ccc(Br)cc2)c1,.,32%[activator],.,7%,?,-41%,.,0%
Cc1ccc(-c2nc(NCCN3CCOCC3)c3ccccc3n2)cc1,-18%,.,-8%,-10%,4%,?,-3.4%,-4%
C=CCn1c(SCN2C(=O)c3ccccc3C2=O)nc2ccc(Cl)cc2c1=O,2%,16µM*,7%,7%,3%,2%,-4.4%,-3%
Cc1cc(C(F)(F)F)n(-c2nc(C(=O)N/N=C/c3ccc(F)cc3)cs2)n1,15%,-4%,?,2%,2%,?,4.4%,-7%
N#Cc1c(-c2ccc(F)cc2)cc(-c2cccnc2)nc1N,1%,-14%,7%,13%,0%,?,1.8%,-1%
COc1ccc(S(=O)(=O)N(C)c2ccc(C(N)=O)cc2)cc1,-3%,-11%,-10%,6%,2%,-12%,-1.0%,18%
O=[N+]([O-])C(C1CCS(=O)(=O)C1)C1CCS(=O)(=O)C1 (stereo not drawn),.,-14%,.,-12%,7%,23%[46.1 µM],.,3%
O=C(COC(=O)c1ccc(F)cc1)Nc1ccc2c(c1)OCO2,.,25%,.,-24%,5%,5%,.,1%
COc1ccc(OC(C)C(=O)N(C)Cc2nc(-c3ccccc3)no2)cc1 (stereo not drawn),-47%,-25%,.,2%,.,-8%[46.1 µM],.,-4%
Cc1ccc(-c2noc(CN(C(=O)c3ccc4c(c3)OCO4)C(C)C)n2)cc1,11%,12%,.,-6%,?,-2%[46.1 µM],.,-1%
CC1CCN(c2oc(-c3ccco3)nc2S(=O)(=O)c2ccccc2)CC1,-19%,14%,.,7%,?,-20%,.,-3%
CC(=O)Nc1ccc(C(=O)N/N=C/c2ccccc2OC(=O)c2ccc(Cl)cc2)cc1,10%,-15%,?,10%,-24%,?,-0.7%,-9%
CCCCn1c(N)c(N(CC(C)C)C(=O)c2cccs2)c(=O)[nH]c1=O,.,-13%,.,-5%,-7%,-4%,.,-1%
CCC(C)Nc1nnnc2c1sc1nc3c(cc12)COC(C)(C)C3 (stereo not drawn),.,-13%,.,-1%,0%[46.1 µM],2%[46.1 µM],.,0%
CCOC(=O)N1CCN(C(=O)CSc2nc3c([nH]c4ccccc43)c(=O)n2C)CC1,4%,-16%,?,-10%,.,.,0.9%,-4%
COc1ccccc1N1CCN(Cc2cnc3ccc(Cl)cn23)CC1,0%,?,.,5%,.,.,.,0%
CCN(CC)CCCNC(=O)c1cn(-c2cccc(OC)c2)c(=O)c2ccccc12,-1%,-2%,.,-8%,4%,25%,.,2%
Cc1ccc(CSc2nnc(SCC(=O)N/N=C/c3ccc(C(=O)O)cc3)s2)cc1,3%,-9%,.,-10%,?,?,.,2%
Cc1cccn2c(=O)c(C=O)c(Nc3ccc(S(N)(=O)=O)cc3)nc12,0%,-14%,.,3%,?,-6%,.,0%
COc1cc(C(=O)N/N=C/c2sccc2C)cc(OC)c1OC,.,12%,.,-3%,?,.,.,-1%
O=C(CC(=O)Nc1ccccc1C(F)(F)F)Nc1ccccc1C(F)(F)F,-1%,-5%,.,2%,.,.,.,-2%
O=C(OCC(=O)N1CCOCC1)c1ccc2[nH]c3c(c2c1)CCCC3,0%,9%,.,-13%,.,.,.,0%
Cc1cccc(NC(=O)CSc2nnnn2-c2ccc3c(c2)OCCO3)n1,-7%,-12%,.,3%,1%,20%[46.1 µM],.,-1%
CCOC(=O)N1CCN(C(=O)CCSc2ccccc2)CC1,-9%,40%[activator],16%,22%,?,-3%,-1.0%,-6%
Cc1nn(C(=O)N2CCCCC2)c(C)c1CN1C(=O)c2ccccc2C1=O,-19%,.,4%,3%,2%,9%,1.4%,-6%
CCC(C)N1C(=O)CCC1C(=O)O (stereo not drawn),5%,0%,-3%,10%,?,20%,-2.7%,-6%
CCOc1cccc2sc(N(Cc3cccnc3)C(=O)C3CCCCC3)nc12,.,-3%,?,.,-26%[46.1 µM],.,-5.4%,.
COc1ccc(-c2nc3c(c(SCc4cc(C)ccc4C)n2)Cc2c(CO)cnc(C)c2O3)cc1,.,-7%,1%,.,2%[46.1 µM],.,-0.3%,.
O=C(c1cccc(C(F)(F)F)c1)C1CCCN(Cc2cccn2-c2ncccn2)C1 (stereo not drawn),2%,?,.,-1%,.,.,.,0%
Cc1nn(C)c(C(=O)N2CCOCC2)c1Cl,11%,-18%,3%,0%,1%,5%,2.5%,9%
CC1(C)NC(=O)N(CC(O)CN(c2cccc([N+](=O)[O-])c2)S(=O)(=O)c2ccccc2)C1=O (stereo not drawn),1%,-2%,.,63%,-1%,14%,.,0%
Nc1nc(SCC(=O)N2CCCC2)[nH]c(=O)c1NC(=O)c1ccco1,11%,0%,-9%,-3%,.,.,0.7%,0%
CC(C(=O)N1CCc2ccccc21)n1cccc1 (stereo not drawn),0%,-1%,11%,0%,-5%,17%,2.9%,-3%
O=C(NC(=S)Nc1ccc(CN2CCOCC2)cc1)c1ccco1,4%,31%[activator],.,4%,0%,?,.,1%
CC(C)C(=O)Nc1c(O)c2ccccc2[nH]c1=O,-6%,5%,.,-11%,4%,8%,.,0%
Cc1ccc(C)c(N2CCN(S(=O)(=O)c3ccc4c(c3)CCCN4C(=O)C3CCC3)CC2)c1,.,?,0%,.,-28%[46.1 µM],.,-2.0%,.
Cc1sc(NC(=O)CN2CCOCC2)c(C#N)c1C,-1%,-8%,.,1%,.,.,.,0%
CCc1ccc2[nH]c(=O)c(CN(CCCN3CCOCC3)C(=O)Nc3cccc(Cl)c3)cc2c1,-35%,?,-5%,-4%,?,18µM*,-11%,2%
Cc1cc(N2C(=O)C(O)=C(C(=O)c3ccco3)C2c2ccc(O)cc2)no1 (stereo not drawn),6%,4%,-11%,0%,6%,-2%,-0.2%,0%
COCCN1C(=O)Cc2c1nc(N)c1c(N)nc(N3CCN(c4ccc(F)cc4)CC3)c(C#N)c21,9%,-15%,.,15%,.,.,.,-3%

# Following part:
SMILES,NS1 function inh,StopGo reporter,Cruzain noTriton,RE007 growth inh,Lassa entry inh,MARV entry inh,Cruzain Triton,SARS PLP yeast
O=C1NC(Cc2c[nH]c3ccccc23)C(=O)N1Cc1ccccc1 (stereo not drawn),12%,-9%,.,-5%,.,.,.,0%
COc1ccc(C)cc1S(=O)(=O)n1ccnc1C,-4%,1%,.,5%,24%[46.1 µM],24%[46.1 µM],.,1%
Cc1ccc2cc(CN(C)C(=O)C3CCCO3)c(=O)[nH]c2c1 (stereo not drawn),-11%,44%[activator],-8%,27%,8%,?,4.2%,-1%
O=C(Nc1ccc2nc(-c3ccccc3)oc2c1)c1ccco1,-15%,-20%,?,12%,12%,-31%[46.1 µM],-11%,-9%
CCOc1ccc(NC(=O)Cn2cc(S(=O)(=O)N3CCN(c4ccccc4F)CC3)c3ccccc3c2=O)cc1,.,13%,16µM*,.,-3%[46.1 µM],1%[46.1 µM],-2.4%,.

# Compound activity from PubChem.
